PINK1 modulator = A Quantitative High throughput Screen to Identify Chemical Modulators of PINK1 Expression | 410,000 tested, 0.2% active | AID 624263, 2012 | PINK1 immunofluorescence, high-content cytometry, 24 h | Potency, µM (series often up to 76.6 µM), inactives show at the highest dose activation (PINK1 increase), most hits filed as activators; active = well fitted activation curve with a large enough effect; inconclusive = small, poorly fitted or top-dose-only effect; inactive = flat fitted curve, though single readings scatter; cell line not stated here;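 further: potency means the concentration at half of the fitted maximal effect; % of control where 0% means no effect; nearly all actives have a fitted effect of over 65% in size; a mitochondrial uncoupler was the plate control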
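Readout is PINK1 immunofluorescence, quantified alongside mitochondrial, cell and nuclear markers by laser-scanning microplate cytometry. Cells from a stable line were exposed to compound titrations (5 concentrations) for 24 hours, with CCCP controls.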
D2 ag = Beta-Arrestin HTS for Positive Allosteric Modulators of the Human D2 Dopamine Receptor: Agonists. activation, % (concentration not given with the values). D(2) dopamine receptor (Homo sapiens), P14416. DiscoveRx PathHunter D2 beta-arrestin, luminescence, 90 min; 100% = 57 uM dopamine signal. 360,000 tested, 0.084% active; in the data active = activation above about 40%; inconclusive = about 15% to 40%; inactive = below about 15%; further: compound concentration not given in the record; the text of the record calls up to 30% inactive
Target sequence (P14416 whole entry, looked up): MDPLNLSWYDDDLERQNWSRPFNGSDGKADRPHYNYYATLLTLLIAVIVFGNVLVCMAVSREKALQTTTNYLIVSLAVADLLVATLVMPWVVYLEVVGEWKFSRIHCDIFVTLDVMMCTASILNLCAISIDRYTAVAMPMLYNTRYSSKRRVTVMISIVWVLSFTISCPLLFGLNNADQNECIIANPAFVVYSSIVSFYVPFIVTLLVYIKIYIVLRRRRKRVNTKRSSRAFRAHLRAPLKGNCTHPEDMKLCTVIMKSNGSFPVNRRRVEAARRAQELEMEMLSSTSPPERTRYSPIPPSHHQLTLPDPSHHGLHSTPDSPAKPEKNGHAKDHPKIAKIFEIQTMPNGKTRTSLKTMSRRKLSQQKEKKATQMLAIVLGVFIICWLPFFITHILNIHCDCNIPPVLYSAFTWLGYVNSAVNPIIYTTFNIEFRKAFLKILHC
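Agonist mode: compounds alone added to overnight-plated D2 PathHunter cells for 90 min at 37 C, with 57 uM final dopamine (EC100) defining full response. Beta-arrestin recruitment detected by chemiluminescent reagent, read after 1 h at ambient temperature.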
Sfp inh = qHTS Assay for Inhibitors of Bacillus subtilis Sfp phosphopantetheinyl transferase (PPTase); Biochemical Sfp PPTase activity, qHTS; Potency, µM, for the others: max response, negative = inhibition, most hits filed as inhibitors; 310,000 tested, 3.5% active; active means well fitted inhibition curve with a large enough effect; inconclusive means small, poorly fitted or top-dose-only effect, or another doubt; inactive means no such curve, though single readings can be large or run the other way;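 further: the enzyme is Sfp with the accession as filed and its product quenches rhodamine fluorescence; potency means the concentration at half of the fitted maximal effect; 0% = enzyme reaction without inhibitor and -100% = no enzyme wells; top concentration of the series not given in the record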
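Step 1, compound plus 15 nM Sfp-PPTase, 15 min, room temperature. Step 2, add rhodamine-CoA (5 uM) and BHQ-2-YbbR (12.5 uM). Step 3, read 525/598 nm fluorescence at 0 and 30 min.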
D2 potentiator = Beta-Arrestin HTS for Positive Allosteric Modulators of the Human D2 Dopamine Receptor: Potentiators; potentiation, % (concentration not given with the values); AID 624464, 2012; 360,000 tested, 0.23% active; DiscoveRx D2 beta-arrestin cells, luminescence, 90 min; 100% = 57 uM dopamine signal; active = potentiation of 50% or more; inconclusive = 30% to 50%; inactive = 30% or less;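 further: compound concentration not given in the record; tested on top of an EC20 dose of dopamine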
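PathHunter D2 cells, attached overnight at 37 deg C, received compound in DMSO plus dopamine at EC20 (50 nM final) for 90 min at 37 deg C. Beta-arrestin recruitment was read as luminescence after 1 h with detection reagent at ambient temperature.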
Six1-Eya2 inh = qHTS Assay for Inhibitors of the Six1/Eya2 Interaction; AlphaScreen GST-Six1/His-Eya2 binding, biochemical; active compounds read low; control for the full effect not named in the record; activity change, % (test concentration not listed); 360,000 tested, 0.56% active; AID 651725, 2012; in the data active = activity change below about -65%; inconclusive = about -30% to -65%; inactive = above about -30%; further: on the % scale 0 is the no-effect control and ±100 the full control effect
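AlphaScreen luminescence read after one hour at 37 °C in darkness. Pin-transferred compounds met GST-Six1 and His-Eya2 protein (5X stock 250 nM/500 nM) plus glutathione donor and Ni-chelate acceptor beads (5X, 50 ug/mL).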
CtBP-E1A blk = qHTS Assay for Inhibitors of the CtBP/E1A Interaction; CtBP / adenovirus E1A interaction (AlphaScreen); AlphaScreen GST-E1A/His-CtBP binding, 1536-well; active compounds read low; control for the full effect not named in the record; activity change, % (test concentration not listed); 340,000 tested, 0.49% active; AID 651724, 2012; in the data active means activity change below about -65%; inconclusive means about -30% to -65%; inactive means above about -30%; further: on the % scale 0 is the no-effect control and ±100 the full control effect
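GST-E1A and His-tagged CtBP (125 nM each as 5X stock) were preincubated with pin-transferred compound for 2 h at 37 °C in the dark, then glutathione donor and nickel acceptor beads were added for 1 h before AlphaScreen reading.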
TRPV1 potentiator = HTS Assay for Compounds that Act as Potentiators of the Vanilloid Receptor 1; Transient receptor potential cation channel subfamily V member 1 (Homo sapiens), Q8NER1; TRPV1-expressing cells, Fluo-8 calcium influx, capsaicin EC20 potentiation; host cell line not named in the record; control for the full effect not named in the record; potentiation, % at 8.33 µM; 320,000 tested, 0.02% active; AID 540277, 2011; active means potentiation above 80%; inconclusive means 30% to 80%; inactive means below 30%; further: 0% is about no effect
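TRPV1-expressing cells were cultured overnight at 35.5C and loaded with Fluo-8 calcium dye for 40 to 90 min at room temperature. After a 10 s baseline, compound was added and calcium influx was read kinetically for 3 min (ex 480/em 520 nm).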
* = called active by the depositor; u = inconclusive; x = not tested or not shown; & = joins results of further samples; [ ] = dose if it differs, or a comment. Compounds were not picked by outcome. Share with any hit: about 3.7%.

SMILES | PINK1 modulator | D2 ag | Sfp inh | D2 potentiator | Six1-Eya2 inh | CtBP-E1A blk | TRPV1 potentiator
Cc1nc2scc(C)n2c(=O)c1S(=O)(=O)Nc1ccc(OC(F)(F)F)cc1 | 6.4% | -0.2 | 25% | -11 | -1 | 1 | -3
O=C(CCCOc1ccc(Cl)cc1Cl)Nc1ccccn1 | u | 4.1 | 21% | -5 | 10 | 2 | 11
Cc1cc2oc(=O)cc(CN(Cc3ccccc3)Cc3ccccc3)c2cc1Cl | 1.8% | 5.2 | x | -4 | 2 | 6 | x
COc1ccc2nc(NC(=O)C3CSC4(C)CCC(=O)N34)sc2c1 (stereo not given) | -0.8% | -0.5 | x | 22 | -2 | 4 | -25
COc1ccc(OC)c(CCNC(=O)CS(=O)(=O)Cc2nc(-c3ccccc3C)oc2C)c1 | 1.4% | -0.7 | -7% | -23 | -21 | -13 | -9
O=C(Nc1nnc(-c2ccco2)o1)c1cccc(Cl)c1 | 0.8% | -0.2 | 15% | -8 | 0 | 13 | 3
CCOC(=O)c1nnsc1C(OC)Oc1ccccc1 (stereo not given) | 0.4% | -1.3 | x | -20 | 12 | -4 | x
Cc1ccc(NC(=O)CCC(=O)NNC(=O)COc2ccccc2)c(C)c1 | 15% | -3.0 | 7% | -6 | 9 | 5 | -8
c1ccc(-c2cc(N3CCOCC3)nc3ccccc23)cc1 | -1.0%[38.3 µM] | 2.1 | 56µM* | -14 | 37 | 45 | -24
CCOC(=O)c1c(-c2ccccc2)nc2cc(C)ccn12 | 2.2%[38.3 µM] | -2.9 | -6% | -3 | -1 | -6 | -10
COc1ccc(-c2nc(CSCC(=O)NCCC3=CCCCC3)c(C)o2)cc1OC | 1.8% | -1.6 | -1% | -20 | -2 | -6 | -3
CCN1CCN(C(=O)c2ccc3c(Cl)c4c(nc3c2)CCCC4)CC1 | -0.8% | -4.6 | -6% | -7 | 4 | 3 | -12
CC1CCN(C(=S)Nc2cccc(S(=O)(=O)N(C)C)c2)CC1 | -2.8% | 3.9 | 0% | -6 | -4 | -6 | 8
Cc1cc(C(=O)COC(=O)c2ccc(Cl)c(S(N)(=O)=O)c2)c(C)n1C1CC1 | 0.4% | 1.2 | x | 30 | -11 | -13 | -7
COc1ccc([N+](=O)[O-])cc1COc1cc(C)cc2oc(=O)cc(-c3ccccc3)c12 | 7.4% | -1.6 | -2% | -22 | -6 | 11 | 10
CC1(C)c2ssc(=S)c2-c2ccccc2N1C(=O)CSC1=NCCS1 | -2.9% | -5.2 | -4% | -21 | u | u | x
Cc1ncoc1C(=O)N1CCCC(C(=O)Nc2cccc(-c3ccc(F)cc3)c2)C1 (stereo not given) | 5.6% | 1.1 | 1% | -28 | -2 | -7 | -5
CCC/C=C1/CCCOC(C(=O)NCCN2CCOCC2)(C(F)(F)F)C1 (stereo not given) | 0.1% | -2.9 | 8% | -9 | 8 | 3 | x
COc1ccc(C(CC(=O)NC(C)(C)C)n2cccc2)cc1 (stereo not given) | 0.6% | 0.8 | 14% | 2 | -1 | -2 | -12
COc1ccc(C(=O)Nc2cccc(C(C)=O)c2)cc1OC | u | 0.1 | -3% | -11 | -1 | 5 | -6

An excerpt from above in order of molecular weight, smallest number first.
SMILES | PINK1 modulator | D2 ag | Sfp inh | D2 potentiator | Six1-Eya2 inh | CtBP-E1A blk | TRPV1 potentiator
COc1ccc(C(=O)Nc2cccc(C(C)=O)c2)cc1OC | u | 0.1 | -3% | -11 | -1 | 5 | -6
COc1ccc(C(CC(=O)NC(C)(C)C)n2cccc2)cc1 (stereo not given) | 0.6% | 0.8 | 14% | 2 | -1 | -2 | -12
CCN1CCN(C(=O)c2ccc3c(Cl)c4c(nc3c2)CCCC4)CC1 | -0.8% | -4.6 | -6% | -7 | 4 | 3 | -12
CCC/C=C1/CCCOC(C(=O)NCCN2CCOCC2)(C(F)(F)F)C1 (stereo not given) | 0.1% | -2.9 | 8% | -9 | 8 | 3 | x
Cc1ncoc1C(=O)N1CCCC(C(=O)Nc2cccc(-c3ccc(F)cc3)c2)C1 (stereo not given) | 5.6% | 1.1 | 1% | -28 | -2 | -7 | -5
Cc1cc(C(=O)COC(=O)c2ccc(Cl)c(S(N)(=O)=O)c2)c(C)n1C1CC1 | 0.4% | 1.2 | x | 30 | -11 | -13 | -7
CC1(C)c2ssc(=S)c2-c2ccccc2N1C(=O)CSC1=NCCS1 | -2.9% | -5.2 | -4% | -21 | u | u | x
COc1ccc(-c2nc(CSCC(=O)NCCC3=CCCCC3)c(C)o2)cc1OC | 1.8% | -1.6 | -1% | -20 | -2 | -6 | -3

(list continues)
SMILES | PINK1 modulator | D2 ag | Sfp inh | D2 potentiator | Six1-Eya2 inh | CtBP-E1A blk | TRPV1 potentiator
COc1ccc(-c2ccc(CCC(=O)O)n2NC(=O)c2cccs2)cc1 | 3.6% | -0.3 | -12% | -5 | 2 | 1 | 9
CCCCn1c(N)c(N(CCOC)C(=O)COc2ccc(Cl)cc2)c(=O)[nH]c1=O | 0.1% | 0.4 | 22% | -5 | -6 | 1 | -4
CCC(C)c1ccc(O)c(NC(=O)c2cccnc2)c1 (stereo not given) | -1.3% | -1.6 | 3% | -29 | 0 | 2 | -4
Cc1ccc2nc(NCCCO)[nH]c2c1 | 1.3% | 0.0 | x | -30 | 0 | -2 | x
Cc1cccc(CSCCNC(=O)Nc2ccccc2)c1 | 3.5% | -2.9 | 12% | -25 | -6 | -15 | -10
Cc1ccccc1NC(=O)CCC(=O)OCC(=O)c1cccc([N+](=O)[O-])c1 | 1.4% | -19 | 28% | -63 | 6 | -1 | 2
COCCN(CCOC)S(=O)(=O)c1ccc(C(=O)Nc2nc(-c3ccccc3)c(C(=O)c3ccccc3)s2)cc1 | 0.1% | -0.3 | 14% | -1 | 1 | -1 | 8
CN1CCc2c(sc(N)c2C(N)=O)C1 | -3.4%[38.3 µM] | -2.9 | 56µM* | -7 | -15 | -13 | -32
Cc1oc(-c2cccc(Cl)c2)nc1CN(C)C1CCOC1 (stereo not given) | 6.2% | -7.1 | -10% | -17 | 6 | 0 | -14
COC(=O)C(CC(C)C)NC(=O)C(Cc1ccccc1)NC(=O)C1CCCN1C(=O)OC(C)(C)C (stereo not given) | 5.4% | -2.8 | 5% | 1 | 4 | 7 | -3
CC1(C(=O)NS(=O)(=O)c2cccc(C#N)c2)CCN1C(=O)CCc1ccccc1 (stereo not given) | 0.5% | -2.9 | x | -3 | 1 | 9 | x
Oc1ccc(Cl)cc1C1=Nc2ccccc2N=C(c2ccco2)C1 | 11%[38.3 µM] | 0.3 | -10% | -15 | 3 | 6 | 6
CCN1C(=O)[C@@H]2[C@@H](c3ccc(-c4ccc(Cl)c(Cl)c4)c(OC)c3)N3CCC[C@@]3(C(=O)OC)[C@@H]2C1=O | 4.1% | 2.6 | x | -6 | -23 | x | -23
COC(=O)c1cn(CC(=O)NCc2cccs2)c2ccccc12 | 0.9% | -2.0 | -6% | -12 | -1 | 8 | -12
Cc1ccc(-c2c(C(=O)N/N=C/c3ccoc3)nnn2-c2nonc2N)cc1 | 1.0% | -2.4 | 17% | -2 | -1 | -18 | -10
COc1cc(C2NC(=O)CS2)cc(OC)c1OC (stereo not given) | -0.7% | 1.3 | 1% | -4 | 2 | 11 | -1
Cc1cc(=O)n2[nH]c(-c3ccc(C(C)(C)C)cc3)cc2n1 | 5.7%[38.3 µM] | -2.8 | 12%&7% | -9 | 1 | 6 | -11&-9
CCn1c(=O)c2cc(C(=O)Nc3cc(C)on3)sc2c2ccccc21 | -0.7% | -1.4 | 2% | 0 | 5 | 2 | u
CCN(CC(=O)Nc1ccc2c(c1)OCCO2)S(=O)(=O)c1ccc(C)cc1 | 6.6%[38.3 µM] | 1.0 | 11% | -7 | 0 | -5 | 4
Cc1cc(C(F)(F)F)nc(SCC(=O)Nc2c(C)n(C)n(-c3ccccc3)c2=O)n1 | 0.3% | 2.2 | 13% | -1 | 0 | 10 | -10
Cc1cc(C)c(S(=O)(=O)N2CCN(CCO)CC2)c(C)c1 | 0.3% | 0.0 | 24% | -5 | 0 | 4 | -6
Cc1[nH]nc2c1/C(=N/O)CC(c1ccccc1)C2 (stereo not given) | x | -2.4 | -4% | -8 | -3 | 1 | 16
COc1ccccc1NC(=O)N(Cc1ccccc1)c1ccccn1 | 0.8% | 1.3 | 15% | -4 | 16 | -1 | -3
O=C(O)c1ccccc1C(=O)NNC(=O)C(c1ccccc1)c1ccccc1 | -0.4% | 1.4 | -3% | 4 | 11 | 7 | 1
Cc1cccc(CNC(=O)c2sc(=O)n(Cc3ccc(S(C)(=O)=O)cc3)c2C)c1 | -1.2% | 2.3 | x | -2 | 1 | -26 | x
Cc1cc(C)nc(/N=C(\N)Nc2ccc(C)c([N+](=O)[O-])c2)n1 | 3.8% | -1.8 | 17% | -11 | 2 | 7 | -4
Cc1cc(/C=C2/SC(=O)NC2=O)c(C)n1-c1ccc(N2CCOCC2)cc1 | u | -1.1 | 7% | -6 | -3 | 12 | 7
O=C(COC(=O)CNS(=O)(=O)/C=C/c1ccccc1)Nc1cccc2ccccc12 | 8.9% | -2.9 | -21% | -7 | -2 | 7 | 4
Cc1nc2ccc([N+](=O)[O-])cc2nc1C | 0.0% | 2.8 | 22% | 0 | -3 | -1 | 2
O=C(CCNS(=O)(=O)c1ccccc1F)N1CCN(C(c2ccccc2)c2ccccc2)CC1 | -3.8% | 0.0 | x | -12 | -5 | 5 | -14
CN1CCSc2ccc(C(=O)NCc3cccc(F)c3)cc21 | 3.5% | -0.5 | -3% | -11 | -14 | 1 | 1
O=C(N/N=C/c1cc(Cl)cc([N+](=O)[O-])c1O)C1CC1 | -0.4% | -8.6 | 24% | -22 | u | x | 9

Screening results (PubChem BioAssay)
